Mtb growth: M. tuberculosis H37Rv growth inhibitors, H37Rv strain (AID 1626). M. tuberculosis H37Rv growth inhibition; higher % means a stronger effect. inhibition, % at 10 µM; hits with a dose series show IC50 in µM. actives 0.95% (n = 220,000);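 active = confirmed in a dose series; inconclusive = inhibition above 80% but not taken into the dose series; inactive = below 80% or under 30% at every dose of the series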;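 note: bacteria incubated seven days before Alamar blue readout; 0% = bacteria only wells and 100% = bacteria with antibiotic wells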
RecA splice inh: blocks M. tuberculosis RecA intein splicing. P9WHJ3. cell-free RecA intein splicing, fluorescence. inhibition, %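 (about 9 µM by stock and volumes)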. actives 0.75% (n = 290,000); in the data active = inhibition above about 30%; inconclusive = no clear call, values can overlap the other calls;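 note: 0% = vehicle wells and 100% = reference inhibitor control wells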
Target sequence (P9WHJ3 whole entry, looked up, canonical isoform): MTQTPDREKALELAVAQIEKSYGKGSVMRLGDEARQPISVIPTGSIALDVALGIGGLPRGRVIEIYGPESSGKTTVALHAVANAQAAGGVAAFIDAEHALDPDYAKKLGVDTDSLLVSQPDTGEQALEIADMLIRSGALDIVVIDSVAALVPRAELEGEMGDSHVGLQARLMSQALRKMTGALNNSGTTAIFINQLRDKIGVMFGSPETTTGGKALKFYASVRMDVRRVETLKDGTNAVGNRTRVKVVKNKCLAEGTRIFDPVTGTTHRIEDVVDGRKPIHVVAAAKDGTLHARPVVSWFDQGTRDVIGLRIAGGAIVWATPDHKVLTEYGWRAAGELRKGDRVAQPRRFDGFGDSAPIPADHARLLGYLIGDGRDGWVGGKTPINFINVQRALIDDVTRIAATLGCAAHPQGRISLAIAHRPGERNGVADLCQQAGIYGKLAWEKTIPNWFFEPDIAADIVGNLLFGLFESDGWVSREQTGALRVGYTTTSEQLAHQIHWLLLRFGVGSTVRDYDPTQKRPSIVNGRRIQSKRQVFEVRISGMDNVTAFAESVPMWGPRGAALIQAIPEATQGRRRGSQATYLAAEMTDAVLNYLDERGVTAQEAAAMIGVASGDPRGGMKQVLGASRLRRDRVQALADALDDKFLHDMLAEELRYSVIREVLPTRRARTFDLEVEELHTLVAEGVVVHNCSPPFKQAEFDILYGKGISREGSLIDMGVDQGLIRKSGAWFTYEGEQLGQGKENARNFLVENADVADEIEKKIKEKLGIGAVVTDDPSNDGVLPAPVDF
Mtb betalactam: beta-lactam sensitization of Mtb H37Rv | M. tuberculosis H37Rv growth with meropenem, percent inhibition; hits of this screen are not shown here | inhibition, % at 25 µM | actives 0.27% (n = 330,000) | AID 434955;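 active = about 74% or more and at least 40 points above the plate without the antibiotic, then above 30% in a dose series; inconclusive = first-round hits that could not be retested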;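 note: growth measured after seven days incubation then overnight dye step; 0% = bacteria only wells and 100% = bacteria with antibiotic; twin plates without the antibiotic show which effects depend on it; some results filed as inactive read as strong as hits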
Arbovirus inh: arbovirus infection inhibition | inhibition, % at 10 µM | arbovirus infection cell-based antiviral screen | actives 0.37% (n = 200,000);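 active = inhibition from about 30%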;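 note: bluetongue infection of BSR cells; cell survival read as ATP light after 72 h; 0% = infected wells without compound and 100% = uninfected wells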
YopH PTP inh: inhibitors of Yersinia enterocolitica YopH tyrosine phosphatase | inhibition, %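 (about 10 µM by stock and volumes)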 | actives 0.16% (n = 140,000) | fluorescence Ex485/Em525 | AID 898;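 active = inhibition of 50% or more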;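 note: controls were vehicle for no effect and minimum signal wells for full effect; inactives centre near -20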
Arbovirus inh repeat: second read-out of Arbovirus inh, no call of its own (marks repeat the call); inhibition, %; measured here: 10K subset replicate screen; many hits read low in the repeat;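 first of two repeat runs on a subset; 0% = infected and 100% = uninfected wells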
Starred values were filed as active, the others as inactive; ? = inconclusive; . = no result given. This is a subset; rates above refer to the full screens.

SMILES	Mtb growth	RecA splice inh	Mtb betalactam	Arbovirus inh	YopH PTP inh	others
O=C(CCn1nc(-c2ccc(F)cc2)ccc1=O)NCc1ccccc1	8%	0.7	-4	.	.
NC(=O)COC(=O)CNC(=O)c1cc(Cl)cc([N+](=O)[O-])c1	2%	3.7	-3	16	.
CCOC(=O)/C(C#N)=C/c1ccc(OCC(=O)Nc2ccc(OC)cc2)c(OC)c1	7%	-1.3	3	8	-37
Cc1cc(SCC(=O)N/N=C/c2ccc(O)c(O)c2)c(C)cc1Br	-11%	5.0	-9	0	-25
Cc1ccc(C)n1-c1ccc2c(c1)COC2=O	-3%	-3.4	-2	3	-28
COc1ccc(S(=O)(=O)n2cccc2)cc1OC	.	2.2	6	.	.
O=C(C1=C[C@@H](C2CC2)C[C@@H](OCc2ccc(CO)cc2)O1)N1CCN(Cc2ccc3c(c2)OCO3)CC1	8%	2.2	2	-5	.
CCC(N=c1cc(-c2ccc(OC)c(OC)c2)oc2ccc(C)cc12)C(=O)O (stereo unspecified)	4%	-198	0	0	-26
O=C(c1cccc(S(=O)(=O)N2CCOCC2)c1)N1CCCCCC1	-5%	-0.5	5	-4	4
CCOC(=O)c1ccc2c(c1)nc(C1CCN(S(=O)(=O)c3cccs3)CC1)n2CC	0%	5.5	-3	5	-22
O=C(CSc1ncccn1)Nc1ccc2c(c1)CCC2	76%	-1.9	-13	.	.
CCn1ccnc1CN1CCCC(C(=O)c2ccc(SC)cc2)C1 (stereo unspecified)	4%	-1.1	-4	-1	.
CC(C)(C)c1ccc(OCC(=O)NNC(=O)Nc2ccccc2)cc1	.	1.5	3	.	.
CCC(C)(C(=O)NC1CCCCC1)N(C(=O)Cc1cccs1)c1ccccc1 (stereo unspecified)	4%	-0.2	1	0	-15
CC(C)c1nc(SCC(=O)N2CCc3ccccc32)n[nH]1	-2%	0.8	0	5	.
CCOC(=O)[C@@]1(C#N)C(c2ccc(Cl)c(Cl)c2)[C@H](C(N)=O)N2C=C(C(C)=O)C=C[C@H]21 (stereo partly specified)	-8%	0.6	-7	-1	-12
Cc1oc2c(c(=O)c1C)C(=O)CC(c1ccccc1)C2 (stereo unspecified)	1%	-1.1	2	12	-51	Arbovirus inh repeat=-2
CN(C1CCCC1)C1CCN(C(=O)CNC(=O)/C=C/c2ccccc2)CC1	-1%	-1.0	-2	7	-20
Cc1c(NC(=O)c2cccc(S(=O)(=O)N3CCOCC3)c2)c(=O)n(-c2ccccc2)n1C	-12%	0.3	-6	0	-2
Cc1nc(C)c(C(=O)Nc2cccc(C)c2C)s1	.	0.1	1	.	.
CCOC(=O)[C@@H]1[C@H]2COc3cc(OC)ccc3[C@H]2N2C(=O)N(c3cccc(Cl)c3)C(=O)[C@@]12C	.	3.1	52	.	.
CC(=O)NCN1CCN(CNC(C)=O)CC1	-8%	-4.5	-23	-3	1
COc1cc2c(cc1/C=C1/NC(=O)N(CC(=O)Nc3ccccc3)C1=O)OCO2	-2%	-37	2	-5	.
Cc1cc(C)c(S(=O)(=O)N2CCOC2CNC(=O)C(=O)NCc2ccco2)c(C)c1 (stereo unspecified)	0%	-2.8	-13	-1	-23
N#CC1(c2ccccc2)CCC(=NO)CC1 (stereo unspecified)	-5%	1.4	0	-1	-9
CCOC(=O)c1c(C)[nH]c(C(=O)CN2C(=O)NC(CC)(c3ccccc3)C2=O)c1C (stereo unspecified)	11%	1.0	-7	-21	-21
O=C(NCCc1ccccc1)C1CCC(=O)N1C1CCCC1 (stereo unspecified)	.	-0.3	0	.	.
Cc1cccc(C)c1NC(=O)C1=C(O)c2sccc2N(C)S1(=O)=O	-3%	-2.8	1	20	.
COc1ccc(OC)c(N2C(=O)[C@@H]3C(c4ccccc4Cl)=NO[C@@H]3C2=O)c1	-2%	13	-18	13	-16
COc1cccc(C2=NOC(C(=O)N3CCOCC3)C2)c1 (stereo unspecified)	-5%	0.4	-16	0	-1
COC(=O)C(Cc1ccc(O)cc1)N1Cc2ccccc2C1=O (stereo unspecified)	.	-0.6	1	.	.
Cc1cc(C)cc(OCC(=O)N(Cc2cccs2)C2CCS(=O)(=O)C2)c1 (stereo unspecified)	-3%	.	0	0	-36
O/N=C/c1ccc(-c2cc(Cl)ccc2Cl)o1	>100µM*	-1.0	93	10	-28
CNC(=O)c1nn(-c2ccccc2)ccc1=O	5%	4.9	-12	2	-12
O=C(COc1ccccc1)NNc1c2ccccc2nc2ccccc12	17%	0.0	4	13	-9
Cc1cc(OCC(=O)NC(Cc2ccc(Cl)cc2)C(=O)O)c2c3c(c(=O)oc2c1)CCC3 (stereo unspecified)	.	2.6	-5	.	.
CN(C(=O)COc1ccc(-c2nnco2)cc1)C1CCS(=O)(=O)C1 (stereo unspecified)	.	-0.6	-12	.	.
COC(=O)c1ccccc1NC(=O)c1ccc(-c2ccccc2F)o1	3%	1.3	-3	-1	-21
Cc1ccc(-n2c(Cn3c(C)nc4ccccc43)n[nH]c2=S)cc1	-6%	-1.1	2	1	-24
COc1cccc(NC(=O)CNC(C)CCC(C)C)c1 (stereo unspecified)	2%	0.0	-12	7	-20

Entries above that contain a COOH group (2):
SMILES	Mtb growth	RecA splice inh	Mtb betalactam	Arbovirus inh	YopH PTP inh	others
CCC(N=c1cc(-c2ccc(OC)c(OC)c2)oc2ccc(C)cc12)C(=O)O (stereo unspecified)	4%	-198	0	0	-26
Cc1cc(OCC(=O)NC(Cc2ccc(Cl)cc2)C(=O)O)c2c3c(c(=O)oc2c1)CCC3 (stereo unspecified)	.	2.6	-5	.	.

Structures listed so far that have fluorine (2):
SMILES	Mtb growth	RecA splice inh	Mtb betalactam	Arbovirus inh	YopH PTP inh	others
O=C(CCn1nc(-c2ccc(F)cc2)ccc1=O)NCc1ccccc1	8%	0.7	-4	.	.
COC(=O)c1ccccc1NC(=O)c1ccc(-c2ccccc2F)o1	3%	1.3	-3	-1	-21

Additional compounds follow:
SMILES	Mtb growth	RecA splice inh	Mtb betalactam	Arbovirus inh	YopH PTP inh	others
Cc1ccc(O)c(C(=O)c2cnc3c(c2)COc2ccc(C)cc2-3)c1	8%	1.5	65	1	-24
CC(C)c1cc(=O)n2[nH]c(SCc3ccc(Cl)cc3)nc2n1	.	1.8	0	.	.
NS(=O)(=O)c1ccc(CNC(=S)NCc2ccc(Cl)cc2)cc1	4%	8.3	5	0	-27
CC(C)CN(C(=O)COC(=O)c1cnc(Cl)c(Cl)c1)c1c(N)n(Cc2ccccc2)c(=O)[nH]c1=O	.	-2.1	-5	.	.
O=C1c2cccc3cccc(c23)C(=O)N1CCN1CCN(CC(O)COc2ccc3ccccc3c2)CC1 (stereo unspecified)	?	5.7	100	-38	-17
CC(=O)c1sc(C(C)(C)C)cc1NC(=O)c1ccccc1C(=O)O	-12%	-2.7	-7	.	.
Cc1ccc(N2CC(C(=O)N3CCC(C(=O)NC(C)(C)C)CC3)CC2=O)cc1 (stereo unspecified)	.	-3.0	-2	.	.
CCOC(=O)c1ccc(NS(C)(=O)=O)cc1	0%	-8.4	-5	5	-3
COCCOC(=O)C1=C(C)NC(=O)NC1c1ccc(Cl)cc1 (stereo unspecified)	-8%	-4.3	8	5	-45
CCCCCC(=O)OCCc1c(C)nc2nc[nH]n2c1=O	-3%	-0.9	5	8	.
O=C(NCCN1CCOCC1)C1CCN(c2nc3ccccc3o2)CC1	-4%	0.8	.	5	-5
O=C(O)C1CCN(S(=O)(=O)N2CCOCC2)CC1	-8%	0.5	-1	-4	-5
Cn1c(=O)cc(SCC(=O)N2CCCC2)c2ccc(Cl)cc21	1%	4.1	0	-7	-5
Cc1ccc(S(=O)(=O)CC(=O)Nc2c(C)n(C)n(-c3ccccc3)c2=O)cc1	-6%	-8.6	8	4	.
COc1ccc(C(C(=O)NC2CCCCC2)N(Cc2cccs2)C(=O)Cc2c[nH]c3ccccc23)cc1OC (stereo unspecified)	9%	0.0	13	-8	-30
O=S(=O)(c1ccc(Cl)cc1)N1CCN(CCc2ccccc2)CC1	.	18	2	.	.
CCOC(=O)c1c(-c2ccccc2)csc1NC(=O)CSc1nc(C)cc(C)n1	13%	4.4	65	8	3
CC(=O)c1cccc(NC2c3ccccc3C(=O)N2Cc2ccco2)c1 (stereo unspecified)	4%	3.3	-2	.	.
O=C(Oc1ccc(-c2csnn2)cc1)C1CC1	-1%	3.2	37	.	.
CCN1CCN(C(=S)NCCc2ccccc2)CC1	-2%	-2.8	-23	-5	-29
CC(C)CCNC(=O)C1CCC(=O)N1CCc1ccccc1 (stereo unspecified)	.	1.3	-9	.	.
O=C(/C(=C(\O)c1ccccc1)c1ncc[nH]1)c1ccccc1	3%	16	3	12	.
C=CCn1c(O)c(C(C)=NCC2CCCO2)c(=O)[nH]c1=O (stereo unspecified)	1%	2.0	93	.	.
C[C@H](CCC(=O)O)[C@H]1CC[C@H]2[C@@H]3C(=O)C[C@@H]4CC(=O)CC[C@]4(C)[C@H]3CC(=O)[C@]12C	-2%	-1.6	-2	6	-32
O=S(=O)(Nc1nccs1)c1ccc(Cl)cc1	7%	-5.9	5	8	-19
COc1ccc2c(Cl)c(C(=O)NC3CCS(=O)(=O)C3)sc2c1 (stereo unspecified)	-6%	-0.8	-14	-7	-15	Arbovirus inh repeat=6
Cc1ccc(CNC(=O)Cn2cccc2C(=O)c2ccccc2C)cc1	6%	0.4	0	-5	.
C/C=C/C=C/C(=O)N1CC2(CC(c3cccc(NC(=O)CCCCC)c3)=NO2)C[C@H]1C(N)=O (stereo partly specified)	4%	1.4	-4	.	.
Oc1ccc(Br)cc1-c1cc(-c2ccccc2Cl)[nH]n1	11%	0.7	33	.	.
COc1ccc(C(C(=O)NC2CCCCC2)N(C(=O)CCCC(=O)Nc2ccccn2)c2ccc3c(c2)OCCO3)cc1 (stereo unspecified)	0%	-4.3	-7	-12	-22
COc1cc(CN2CCN(c3cccc(C)c3C)CC2)cc([N+](=O)[O-])c1O	7%	-1.8	2	14	.
Cc1cc(-c2nnc(CCC(=O)NCCc3ccccc3F)o2)no1	.	2.2	?	.	.
CC1CCCC(C2(O)C(=O)Nc3ccccc32)C1=O (stereo unspecified)	0%	1.8	-6	-1	32
CCOC(=O)N1CCN(C(=O)CN(c2ccccc2OC)S(=O)(=O)c2ccc(OC)cc2)CC1	-2%	0.9	-15	0	.
COC(=O)c1ccc2[nH]c(C)cc(=O)c2c1	7%	-0.6	-8	4	-36	Arbovirus inh repeat=-4
Cc1ccc(O)c(NC(=O)c2ccc3c(c2)C(=O)N(CC(C)C)C3=O)c1	.	4.4	6	.	.
N/C(=N\N=C\c1cccc(O)c1)c1nonc1N	6%	-5.4	-2	5	.
COc1ccc(N2CCN(C(=O)COC(=O)/C=C/c3ccc(OC(F)F)cc3)CC2)cc1	.	-1.7	6	.	.
Cc1cc(NC(=O)Nc2cc(F)ccc2F)no1	6%	-1.3	5	.	.
Cc1ccc(S(=O)(=O)NCC(=O)OCC(=O)c2cc(C)n(-c3ccccc3)c2C)cc1	5%	6.4	0	6	-18

As a short view, part of the list above:
SMILES	Mtb growth	RecA splice inh	Mtb betalactam	Arbovirus inh	YopH PTP inh	others
NC(=O)COC(=O)CNC(=O)c1cc(Cl)cc([N+](=O)[O-])c1	2%	3.7	-3	16	.
CCOC(=O)/C(C#N)=C/c1ccc(OCC(=O)Nc2ccc(OC)cc2)c(OC)c1	7%	-1.3	3	8	-37
Cc1cc(SCC(=O)N/N=C/c2ccc(O)c(O)c2)c(C)cc1Br	-11%	5.0	-9	0	-25
Cc1ccc(C)n1-c1ccc2c(c1)COC2=O	-3%	-3.4	-2	3	-28
COc1ccc(S(=O)(=O)n2cccc2)cc1OC	.	2.2	6	.	.

(more compounds)
SMILES	Mtb growth	RecA splice inh	Mtb betalactam	Arbovirus inh	YopH PTP inh	others
COc1ccccc1N1CCN(C/C=C/c2ccc(N(C)C)cc2)CC1	7%	-0.3	-5	14	-6
COc1ccccc1NS(=O)(=O)c1ccc(OC)c(OC)c1	.	-3.2	-7	11	-40
CCOc1ccc2nc(NC(=O)CN3CCC(n4nnc5cc(C(F)(F)F)ccc54)CC3)sc2c1	16%	-4.0	33	-5	-39
Cc1ccc(C)c(NC(=O)Cn2nc([N+](=O)[O-])c(Br)c2C)c1	2%	5.7	4	-5	-28
Cc1cc(Nc2ccc(F)cc2C)n2nc(C)nc2n1	3%	-2.4	-3	5	-36	Arbovirus inh repeat=0
CCCn1c(SCC(=O)Nc2ccc(C)c(S(=O)(=O)N3CCOCC3)c2)n[nH]c1=O	-6%	2.7	-2	-1	-29
O=C(/C(=C/c1ccccc1)c1ccccc1)N1CCCCC1	-1%	2.3	-3	-4	-45
CC(NO)C(C)(C)NO (stereo unspecified)	-5%	-6.8	7	5	-56
COc1ccccc1NC(=S)N(Cc1cccnc1)Cc1ccccc1Cl	1%	-1.0	4	4	.
Cn1c(-c2ccc(F)cc2)cnc1NCc1ccc(C#N)cc1	0%	2.8	6	7	-22
